Screening data: PubChem BioAssay, National Center for Advancing Translational Sciences (NCATS)
VDR inhibitor = blocks the human vitamin D receptor. P11473. VDR-SRC2-3 peptide fluorescence polarization, 2 h. hit rate 0.93% among 400,000. Potency, µM, for the others: max response, negative = inhibition, most hits filed as inhibitors; active means well fitted inhibition curve with a large enough effect; inconclusive means small, poorly fitted or top-dose-only effect, or another doubt; inactive means no such curve, though single readings can be large or run the other way; further: series mostly up to about 120 µM
Target sequence (P11473 whole entry, looked up): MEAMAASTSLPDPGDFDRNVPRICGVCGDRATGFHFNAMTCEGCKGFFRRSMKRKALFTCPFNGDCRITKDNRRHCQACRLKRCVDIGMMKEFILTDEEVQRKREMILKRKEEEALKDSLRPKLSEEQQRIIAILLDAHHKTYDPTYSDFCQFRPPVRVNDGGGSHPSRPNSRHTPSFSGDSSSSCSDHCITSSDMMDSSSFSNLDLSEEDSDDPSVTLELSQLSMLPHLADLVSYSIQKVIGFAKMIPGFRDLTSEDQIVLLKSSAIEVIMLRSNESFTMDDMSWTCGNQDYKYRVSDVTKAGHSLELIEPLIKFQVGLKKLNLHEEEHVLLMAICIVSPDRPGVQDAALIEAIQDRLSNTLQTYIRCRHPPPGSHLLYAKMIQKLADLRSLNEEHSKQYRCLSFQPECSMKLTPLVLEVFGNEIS
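Compounds are added to VDR with labelled SRC2-3 coactivator peptide and held 2 h at room temperature. Inhibition of the VDR–peptide interaction is then read as a change in fluorescence polarization.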
Active calls of the source: *; u = inconclusive; & = joins results of further samples; [ ] = dose if it differs, or a comment. On the % scale 0 is the no-effect control and ±100 the full control effect; potency means the concentration at half of the fitted maximal effect.

SMILES,VDR inhibitor
CC(C)(C)NC(=O)C1Cc2ccccc2CN1 (configuration not stated),-1.0%
CCC(=O)N1CCc2cc(Br)cc(S(=O)(=O)N3CCCC(C(=O)Nc4ccc(OC)c(Cl)c4)C3)c21 (configuration not stated),-12.1%
c1ccc(-c2nnc3sc(Cc4cccs4)nn23)cc1,-8.4%
CCOC(=O)c1c(S(=O)(=O)N2CCCC(C(=O)Nc3cc(C)ccn3)C2)c(C)n(C)c1C (configuration not stated),21.6%
CCCOc1ccc(-c2c(C(=O)N/N=C/C3CC=CCC3)nnn2-c2nonc2N)cc1 (configuration not stated),8.5%
Cc1cc(Nc2ccc(N(C)C)cc2)n2ncnc2n1,1.8%
O=[N+]([O-])c1cc(S(=O)(=O)Nc2ccccc2)ccc1-n1nnc2ccccc21,-10.6%
COc1ccc(/C=N/NC(=O)CCn2nc(C)cc2C)cc1,2.9%

SMILES,VDR inhibitor
CN(C)S(=O)(=O)c1ccc(C(=O)NCCS(=O)(=O)N2CCN(c3ccc(F)cc3)CC2)cc1,1.4%
COc1ccc(/C=N/n2c(-c3ccc(C)cc3)n[nH]c2=S)cc1OC,-11.7%
Fc1ccc(C(CCCn2nnc(-c3cccnc3)n2)c2ccc(F)cc2)cc1,-10.7%
O=C(CNC(=O)c1ccc(Br)cc1)OCc1cc([N+](=O)[O-])cc2c1OCOC2,1.9%
Cc1ccc(-c2nc3c(c(SCC(=O)Nc4ccccc4Cl)n2)Cc2c(CO)cnc(C)c2O3)cc1,0.1%
CN(c1ccc(C(=O)NCCSCc2ccc(Cl)cc2)cc1)S(=O)(=O)c1ccccc1,-4.5%
Cc1c(C(=O)NCc2ccccn2)oc2ccc(S(=O)(=O)N3CCOCC3)cc12,6.2%
COc1ccc(CNC(=O)C(C)N(Cc2ccco2)C(=O)c2snc(C(N)=O)c2N)cc1 (configuration not stated),17.0%

SMILES,VDR inhibitor
O=C(CSc1nccc(=O)[nH]1)Nc1cccc(S(=O)(=O)N2CCOCC2)c1,-7.6%
CCOC(=O)N1CCN(C(=O)c2cc(COc3cccc(C(F)(F)F)c3)on2)CC1,2.0%
CCN(CC(=O)NCc1cccs1)C(=O)c1cccc(Cl)c1,17.1%
CC(C)(C)c1ccc(C(CC(=O)O)NC(=O)Cc2ccc(Cl)cc2)cc1 (configuration not stated),-16.6%
CCOc1c2ccc(C(=O)NCc3ccc(C)cc3)cc2nn1CCOC,-0.6%
O=C(Cn1cnc2onc(-c3ccc(F)cc3)c2c1=O)Nc1cccc(C(F)(F)F)c1,25.4%
O=C(CN1CCN(C2CCCCC2)C(=O)C1=O)Nc1ccc(Cl)cc1,24.2%
Cc1ccc(C(=O)CSc2ncc3c(n2)-c2ccccc2N(Cc2ccc(Cl)cc2)S3(=O)=O)cc1,-1.7%

SMILES,VDR inhibitor
CCOc1ccc(CNC(=O)CCn2c(=O)oc3ccccc32)cc1,-10.1%
Cc1cc(C)cc(OCC(=O)N(C)CC(=O)Nc2ccc(Cl)c(C(F)(F)F)c2)c1,-16.1%
CCC(=O)Nc1ccc2c(c1)nc(CCN1CCN(c3ccccn3)CC1)n2C,0.4%
Fc1ccc(OCCOCCNCC2CCCO2)cc1 (configuration not stated),2.5%
CCNC(=O)[C@H]1O[C@H](n2cnc3c(N)nc(NCCc4ccc(CCC(=O)O)cc4)nc32)[C@@H](O)[C@@H]1O,-6.7%
Cc1cccc(NC(=O)CN2C(=O)COc3ccc(S(=O)(=O)Nc4ccccc4)cc32)c1C,15.7%
Cn1c(-c2cccc([N+](=O)[O-])c2)cnc1NCc1cccc(F)c1,-9.2%
CCCC(C)C(=O)Nc1ccccc1C(=O)OCC (configuration not stated),7.5%

An excerpt from above in order of their number in VDR inhibitor, ascending:
SMILES,VDR inhibitor
CCC(=O)N1CCc2cc(Br)cc(S(=O)(=O)N3CCCC(C(=O)Nc4ccc(OC)c(Cl)c4)C3)c21 (configuration not stated),-12.1%
Cn1c(-c2cccc([N+](=O)[O-])c2)cnc1NCc1cccc(F)c1,-9.2%
CCNC(=O)[C@H]1O[C@H](n2cnc3c(N)nc(NCCc4ccc(CCC(=O)O)cc4)nc32)[C@@H](O)[C@@H]1O,-6.7%
CCOc1c2ccc(C(=O)NCc3ccc(C)cc3)cc2nn1CCOC,-0.6%
Fc1ccc(OCCOCCNCC2CCCO2)cc1 (configuration not stated),2.5%
COc1ccc(CNC(=O)C(C)N(Cc2ccco2)C(=O)c2snc(C(N)=O)c2N)cc1 (configuration not stated),17.0%
CCN(CC(=O)NCc1cccs1)C(=O)c1cccc(Cl)c1,17.1%

Remaining list, next part
SMILES,VDR inhibitor
Cc1cc(C)n(CC(O)COc2ccc(F)cc2)n1 (configuration not stated),-13.7%
Cc1ccc(CSc2oc(-c3cccs3)nc2S(=O)(=O)c2ccc(C)cc2)cc1,4.5%
C=CCN1C(=O)c2ccc(C(=O)N3CCN(S(=O)(=O)c4ccccc4Br)CC3)cc2C1=O,-16.5%
CCCn1c(C2CC(=O)N(c3ccc(C)cc3)C2)nc2ccccc21 (configuration not stated),-0.5%
COc1cc(N)c(Cl)cc1C(=O)OCC(=O)NCC1CCCCC1,-3.6%
Cc1cccc(NC(=O)C2CCN(S(=O)(=O)c3ccc4c(c3)CCCC(=O)N4)CC2)c1,5.8%
Cc1ccc(Oc2c(C(F)(F)F)oc3c(CN4CCC(C)CC4)c(O)ccc3c2=O)cc1,-6.9%
Nc1ncnc2c1ncn2CCc1ccccc1,6.5%

SMILES,VDR inhibitor
CCOCCCNC(=S)N(CCCN(C)C)Cc1cc2cc3c(cc2[nH]c1=O)OCCO3,-10.6%
Cc1noc(C)c1S(=O)(=O)N(C)C[C@H]1Oc2ccc(NS(=O)(=O)c3cn(C)cn3)cc2C(=O)N([C@H](C)CO)C[C@@H]1C,-6.5%
CCn1cc(S(=O)(=O)Nc2nc3ccc(OC)cc3s2)cn1,9.4%
CC(CCc1ccccc1)NC(=O)/C=C/c1ccccc1 (configuration not stated),9.3%
Cc1nc(C)c2c(=O)cc(-c3ccccc3)[nH]c2n1,2.4%
CN(/N=C/c1ccncc1)C1=NS(=O)(=O)c2ccccc21,6.2%
CCN(CC)CCOC(=O)c1ccc(NC(=O)C(C)NC(=O)C23CC4CC(CC(C4)C2)C3)cc1 (configuration not stated),6.3%
COc1ccc(NC2CC(=O)N(C)C2=O)cc1 (configuration not stated),4.0%

SMILES	VDR inhibitor
Cc1cc(C)nc(SCC(=O)N/N=C/c2cccs2)n1	-3.3%
COc1cccc(-c2csc(NC(=O)Oc3ccccc3)n2)c1	24.0%
COc1ccc(S(=O)(=O)NC(C)C)cc1C(=O)NC1CCCCC1	-0.6%
Nc1cc(N)nc(SCC(=O)NCc2ccco2)n1	2.4%
CCOC(=O)c1cc2c(nc1N)CC(C)(C)OC2	-11.4%
O=C(CSc1nnc(CNC(=O)c2c(F)cccc2Cl)o1)Nc1ccc2c(c1)OCCO2	-11.0%
COc1ccc(Nc2nc(N)nc(CSC(=S)N3CCN(c4ccccc4)CC3)n2)cc1	-11.2%
CCn1c(=N)n(CCOc2ccc(Br)cc2)c2ccccc21	4.7%
CC(Sc1nnc(C2CC2)n1C1CC1)C(=O)Nc1cccc(S(=O)(=O)N(C)C)c1 (configuration not stated)	-0.4%
COCCN1CCC(CNCc2cn(-c3cc(C)ccc3C)nc2-c2ccccc2)C1 (configuration not stated)	-13.2%
O=C(Nc1cccc(S(=O)(=O)NCc2ccco2)c1)c1cc(-c2ccc(F)cc2)nc2ccccc12	0.4%
O=C(NCc1ccccn1)c1ccccc1OCc1ccc(Cl)cc1Cl	14.1%
CCC1CCCCN1C(=O)COc1ccc2c3c(c(=O)oc2c1)CCC3 (configuration not stated)	1.4%
Cc1cccc(Nc2nnc(SCC(=O)NC3CCCc4ccccc43)s2)c1C (configuration not stated)	-13.7%
CC(=O)NC1C(=O)N(CC(C)C)c2ccccc21 (configuration not stated)	-8.9%

SMILES	VDR inhibitor
CC(=O)c1ccccc1NC(=O)c1cc(S(=O)(=O)N2CCOCC2)ccc1N1CCCC1	u
COc1cccc(NC(=O)c2ccc(S(=O)(=O)N3CCCCC3)cc2)c1	-4.8%
COc1ccccc1CNC(=O)c1cnc2sc(N3CCCCC3)nn2c1=O	11.9%
CC(C(=O)NCC1CCCCC1)N1CCN(S(=O)(=O)c2cccs2)CC1 (configuration not stated)	1.0%
CCOc1ccccc1C(=O)OCC(=O)Nc1cccc(S(=O)(=O)N2CCCC2)c1	55.7%[activator]
O=C(COc1ccc(Br)cc1)NCCN1CCCC1	-18.5%
CC(C)c1ccc(CNc2ncc(Br)cn2)cc1	-12.1%
CN(C)/C=C/C(=O)c1ccc(Br)cc1	-12.7%
O=c1[nH]c2ccc(NCc3ccc(F)cc3)cc2[nH]1	-5.9%
CC(=N/O)/C(=N\O)c1ccc(C)o1	12.5%
COc1ccc(Cl)cc1N(C(=O)c1ccco1)C(C(=O)NC1CCCC1)c1cccnc1 (configuration not stated)	-2.3%
O=C(Nc1ccccc1F)N(Cc1ccc(F)cc1)Cc1nc2ccccc2c(=O)[nH]1	-11.1%
CC(C)C(=O)Nc1ccc(-c2nc3ncccc3o2)cc1	u
CCCCN(Cc1ccccc1)S(=O)(=O)c1ccc2c(c1)CCN2C(=O)C1CCC1	-10.6%
C=CCn1c(SCCN2CCOCC2)nc2c1c(=O)[nH]c(=O)n2C	-5.4%

SMILES	VDR inhibitor
CCCC/S(C)=N/S(=O)(=O)c1ccc(C)cc1 (configuration not stated)	-15.2%
O=S(=O)(NC1CC1)c1ccc(S(=O)(=O)N2CCCc3ccccc32)cc1	-9.0%
CS(=O)(=O)Nc1ccc(C(=O)NC2CC3CCC2C3)cc1 (configuration not stated)	0.2%
Cc1ccccc1CN(c1ccc(C(=O)Nc2cccnc2)cc1)S(C)(=O)=O	15.9%
O=C(CCc1cn(Cc2ccc(F)cc2)c2ccccc12)NCCc1ccc(Cl)cc1	12.3%
Cc1c(CN(C)C)c2c(n1Cc1ccccc1)C(=O)c1ccccc1-2	-1.6%
CCCCn1c(N)c(N(C)C(=O)C2CCCC2)c(=O)[nH]c1=O	-12.2%
Cc1cccc(-n2ncc(C#N)c2N)c1	9.4%
CC(Sc1nnc2ccccn12)C(=O)Nc1ccc2c(c1)OCCO2 (configuration not stated)	2.9%
COc1ccc(CNCC(C)NCc2ccc(OC)c(OC)c2)cc1OC (configuration not stated)	5.6%
CCN(CC)c1ccc(C(=O)n2cnc3ccccc32)cc1	-13.6%
Cc1cc(Nc2ccccc2)cc(=O)n1C	-15.5%
Cc1cccc(-c2noc(CNC(=O)Nc3ccc(F)cc3)n2)c1	-8.8%
CCCn1c(N)c(N(CCOC)C(=O)c2cc(-c3ccco3)nc3ccccc23)c(=O)[nH]c1=O	5.7%
Oc1cccc(/C=N/Nc2ccc(Cl)nn2)c1	-1.5%

SMILES	VDR inhibitor
COc1ccc(C(OC(=O)c2ccco2)C(=O)NCc2ccco2)cc1 (configuration not stated)	-4.6%
Cc1ccc(NC(=O)CN(CCc2ccccc2)S(C)(=O)=O)cc1	-15.3%
CC1CCC(NC(=O)C(NS(=O)(=O)c2cccc3nsnc23)C(C)C)CC1 (configuration not stated)	-6.0%
NC(=O)CC(NC(=O)c1ccccc1)c1ccc(N2CCC(Br)CC2)c([N+](=O)[O-])c1 (configuration not stated)	-3.9%
N#Cc1cnc(NN)nc1	-4.5%
CCN(C1CCCCC1)S(=O)(=O)c1c(C)n(C)c(=O)n(C)c1=O	-1.9%
COC(=O)c1ccc(-c2nc(-c3ccc(OC)c(OC)c3)no2)cc1	-0.4%
CCOc1cc2[nH]c(=O)n(Cc3ccc(C(=O)N4CCN(c5cccc(Cl)c5)CC4)cc3)c(=O)c2cc1OCC	-2.4%
Cc1ccc2nc3c(nc2c1C)C(O)=C3O	u
Cc1nc2ccccc2c(N)c1C(=O)/C=C/c1ccccc1	9.2%
Cc1cc(O)c2c(c1)C(O)(C1OC(CO)C(O)C(O)C1O)c1cccc(O)c1C2=O (configuration not stated)	-2.2%
Cc1ccccc1C(=O)NNC(=S)NC(=O)c1cccs1	-4.1%
COc1ccc(CCNC(=O)C2CCN(S(=O)(=O)N3CCC4(CC3)OCCO4)CC2)cc1OC	-8.0%
CCCC1O[C@@H]2C[C@H]3[C@@H]4CCC5=CC(=O)C=C[C@]5(C)[C@H]4[C@@H](O)C[C@]3(C)[C@]2(C(=O)CO)O1 (some centres not stated)	-10.1%&-25.7%
CC1CCN(c2nc3c(S(=O)(=O)c4ccccc4)nnn3c3ccc(Cl)cc23)CC1	0.5%

SMILES	VDR inhibitor
Cc1ccccc1C(=O)NC(=S)NC1CCSC1=O (configuration not stated)	-11.9%
S=C1NCN(Cc2ccco2)CN1CCc1ccccc1	-15.4%
O=S(=O)(NCc1nc(-c2ccccc2)no1)c1ccc(F)cc1	8.4%
CCC(=O)Nc1ccc(C)cc1-c1nc2ccccc2n(Cc2ccccc2)c1=O	10.5%
CCOC(=O)C1CCN(C(=O)C2CCCN(S(=O)(=O)c3ccc(OCC)c(Cl)c3)C2)CC1 (configuration not stated)	0.3%
NC(=O)NC(=O)C[n+]1cccc(/C=N/O)c1	4.0%
O=C(NCCc1ccccc1Cl)c1sc2ncccc2c1-n1cccc1	4.9%
CN1CCN(c2ccc(Cl)cc2NC(=O)c2nn(-c3ccccc3)c(=O)c3ccccc23)CC1	-0.1%
CC(C)NC(=O)N(C)C[C@H]1Oc2ccc(NS(=O)(=O)c3ccc(F)cc3)cc2C(=O)N([C@H](C)CO)C[C@@H]1C	1.9%
COc1cc(/C=C/C(=O)N2CCN(CC(O)COc3ccccc3)CC2)cc(OC)c1OC (configuration not stated)	-3.3%

A portion of the library; the hit share may differ from the screen's.
